From PubChem BioAssay
PKD1 kinase inh: inhibitors of human PKD1 kinase, biochemical, fluorescence polarization | Serine/threonine-protein kinase D1 (Homo sapiens), Q15139 | PKD1 kinase fluorescence polarization assay | inhibition, %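 (about 10 µM by stock and volumes)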 | actives 0.056% (n = 200,000);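 active = inhibition of 50% or more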;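 also: controls were vehicle for no effect and a reference inhibitor for full effect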
GALR2 ag: GALR2 receptor agonists, primary screen, cell-based; Galanin receptor type 2 (Homo sapiens), O43603; GALR2-expressing cells, agonist activation read-out; activation, %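 (tested at 5 µM)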; actives 0.48% (n = 140,000);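 active = above mean plus 3 SD of all compounds, about 5% in these data, not always enough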;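 also: 0% = vehicle buffer wells and 100% = reference agonist at full effect; tested in CHO reporter cells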
Target sequence (O43603 whole entry, looked up): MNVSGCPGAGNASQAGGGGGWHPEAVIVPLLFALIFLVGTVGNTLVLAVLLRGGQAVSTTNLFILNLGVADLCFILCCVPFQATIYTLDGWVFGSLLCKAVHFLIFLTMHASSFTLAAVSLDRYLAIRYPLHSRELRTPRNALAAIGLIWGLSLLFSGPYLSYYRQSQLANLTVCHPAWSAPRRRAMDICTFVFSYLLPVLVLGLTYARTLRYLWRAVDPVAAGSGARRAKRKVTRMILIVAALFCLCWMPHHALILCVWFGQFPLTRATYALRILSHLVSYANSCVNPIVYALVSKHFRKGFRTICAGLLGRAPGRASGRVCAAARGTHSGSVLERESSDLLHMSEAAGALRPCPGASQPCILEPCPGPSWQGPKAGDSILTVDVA
RGS16-Gao HTS: modulators of RGS16 binding to Galphao, primary screen, biochemical, human proteins, multiplexed bead flow cytometry | bead-based flow cytometry RGS16-Galphao binding, fluorescence; actives lie on both sides | AID 1441, 2008 | binding response (% of control), % at 10 µM | actives 0.38% (n = 220,000);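 active = below 25% or above 175%, edge rows of some plates excepted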;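 also: Galphao activated by GDP with aluminum fluoride before binding; 100% = wells without compound and 0% = beads without RGS; some results beyond the cut were filed as inactive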
Target sequence (O15492 whole entry, looked up): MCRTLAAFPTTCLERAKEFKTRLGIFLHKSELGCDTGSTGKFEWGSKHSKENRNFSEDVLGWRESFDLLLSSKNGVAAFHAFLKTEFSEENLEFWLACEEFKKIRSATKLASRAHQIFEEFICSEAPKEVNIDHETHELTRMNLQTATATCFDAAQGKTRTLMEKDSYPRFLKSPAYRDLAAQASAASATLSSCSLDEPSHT
Target sequence (P09471 whole entry, looked up): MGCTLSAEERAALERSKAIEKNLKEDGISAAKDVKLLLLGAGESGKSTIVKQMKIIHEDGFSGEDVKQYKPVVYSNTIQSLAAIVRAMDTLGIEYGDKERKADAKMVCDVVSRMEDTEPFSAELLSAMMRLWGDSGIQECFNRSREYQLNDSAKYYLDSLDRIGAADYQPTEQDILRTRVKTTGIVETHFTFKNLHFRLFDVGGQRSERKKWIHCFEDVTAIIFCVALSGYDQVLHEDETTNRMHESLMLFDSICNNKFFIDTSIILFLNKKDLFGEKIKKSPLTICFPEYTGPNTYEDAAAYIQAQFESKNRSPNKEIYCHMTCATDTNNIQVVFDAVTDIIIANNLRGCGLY
HSV replic up: enhancers of HSV replication in host cells, fold increase, host cell viability | HSV replication augmentation in cells | maximum fold increase | actives 0.005% (n = 220,000) | AID 1956, 2009;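 active = peak rise of 1.5-fold or more in the series; tested in PC3 cells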;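 also: first round at 10 µM; read as green reporter fluorescence; hits show the peak of a series up to 25 µM; 1 = signal of infected wells without compound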
INS promoter inh: inhibitors of insulin promoter-driven GFP, primary screen, imaging, TRM-6 cells (human fetal islet line), eGFP reporter, cell count; inhibition, % at 2 µM; reporter expression induced with tamoxifen; actives 0.9% (n = 130,000); AID 1273, 2008;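 active = inhibition above the mean plus 3 SD, with well images judged a real hit on visual review, cut at about 60% in these data, passing the limit was not always enough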
INS promoter inh cell count: also measured in INS promoter inh; calls as there; normalized cell count, %; measured here: cell count, toxicity; reference of the scale not given here;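 cells exposed to compound for 48 h; stained nuclei by imaging scaled within each plate; lower means fewer cells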
HSV replic up primary fold: further read-out of HSV replic up, marked with its call; fold increase; compound at 10 µM; measured here: primary screen fold increase 10 uM; tested in PC3 cells;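 GFP signal in the first replicate; 1 = infected wells without compound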
An asterisk follows results filed as active; i = inactive; · = no result given.

Molecule	HSV replic up primary fold	HSV replic up	GALR2 ag	INS promoter inh	INS promoter inh cell count	RGS16-Gao HTS	PKD1 kinase inh
CC(C)Oc1cc(O)c2c(=O)c(-c3ccc(O)cc3)coc2c1	0.95	i	-0.2	-140.0	52.7	104.7	-5.8
Cc1ccccc1-c1cc2nc(-c3ccc([N+](=O)[O-])cc3)cc(=O)n2[nH]1	0.98	i	·	·	·	104.0	-4.1
COCCNC(=O)NC(=O)COC(=O)C12CC3CC(CC(NC(C)=O)(C3)C1)C2	1.01	i	-1.9	·	·	95.4	-5.4
COc1ccccc1N1CCN(C(=O)/C=C/c2cccs2)CC1	1.16	i	-1.0	16.9	136.2	101.1	9.9
CCOC(=O)Cn1c(C)[n+](C)c2cc(Cl)c(Cl)cc21	0.94	i	·	16.7	65.1	111.2	-5.0
Cc1c(NC(=O)C2CC=CCC2C(=O)O)c(=O)n(-c2ccccc2)n1C (stereo unspecified)	0.86	i	-2.1	61.5	117.3	95.7	-4.8
Cc1ccc(-n2c(SCc3cn4ccsc4n3)nc3ccccc3c2=O)cc1	0.92	i	0.5	3.0	89.7	90.3	-6.6
Cc1ccc(-c2nnn(CC(=O)N(c3ccccc3)C(C(=O)NCC3CCCO3)c3ccc(F)cc3)n2)o1 (stereo unspecified)	0.83	i	·	·	·	103.5	-4.5
Cc1ccc(CC(=S)N2CCOCC2)cc1	1.07	i	·	·	·	91.2	-0.3
Cc1ccc(C(CC(=O)N2CCOCC2)c2ccco2)cc1 (stereo unspecified)	0.95	i	-0.5	44.0	95.0	98.6	-7.0
CCOc1cc(OCC)cc(C(=O)NCCCN2CCOCC2)c1	1.23	i	·	22.2	107.6	98.2	3.7
COc1cc(C2NC(=O)NC(C)=C2C(=O)OCC2CCCO2)ccc1O (stereo unspecified)	1.13	i	0.8	5.6	114.3	115.1	-1.7
Cc1cc(NC(=O)COC(=O)CSc2nc3cc(Cl)ccc3n2Cc2ccccc2)no1	1.04	i	-1.0	15.2	130.2	99.7	-8.3
COc1ccc2oc(-c3ccc(NC(=O)c4ccc(N5CCOCC5)c([N+](=O)[O-])c4)cc3)nc2c1	0.8	i	-0.8	·	·	113.9	-4.7
O=S(=O)(N1CCCCC1)N1CCNCC1	0.89	i	-1.5	10.7	150.4	102.0	-4.7
Cc1cc(C)nc(N/N=C/c2cccc(Cl)c2)n1	0.95	i	·	·	·	104.0	-2.2
O=C(Nc1cccc(F)c1)C1CCN(C(=O)Cc2ccccc2)CC1	0.95	i	-0.7	23.1	79.9	100.5	-0.1
CCOc1ccccc1C1C2=C(COC2=O)Nc2cc3c(cc21)OCO3 (stereo unspecified)	0.76	i	·	·	·	93.3	3.8
COc1ccc(N2CC(C(=O)Nc3nnc(SCC(=O)c4ccccc4)s3)CC2=O)cc1 (stereo unspecified)	0.94	i	-0.3	29.6	91.4	30.3	-5.0
COc1ccc(-c2nnc(SCC(=O)c3ccc(C)o3)o2)cc1	0.88	i	-1.5	-150.0	155.1	104.0	-2.5
O=C(O)C(Cc1ccccc1)N1C(=O)/C(=C/c2cccs2)SC1=S (stereo unspecified)	1.64	i	·	·	·	99.1	1.6
CCO[C@@H]1OC(C(=O)Nc2ccccc2)=C[C@H](C2CC2)[C@H]1CCCO	0.87	i	·	·	·	95.5	-11.4
CCCC(c1nnnn1CCOC)N1CCN(C(=O)c2ccco2)CC1 (stereo unspecified)	0.92	i	-2.0	-7.1	114.0	100.9	-3.9
CC1=Nc2ccccc2N=C(NC(=O)CN2CCN(c3ccc(F)cc3)CC2)C1c1ccccc1 (stereo unspecified)	0.95	i	·	·	·	107.9	·
Nc1nnc(SCc2ccc(F)cc2Cl)s1	1.3	i	-0.2	-2.6	153.1	102.1	-2.9
O=C(C1=C[C@@H](c2ccc3c(c2)OCO3)C[C@@H](OCCCCO)O1)N1CCOCC1	1.07	i	·	·	·	96.5	-5.0
Cc1nc(C(=O)NC2CCOCC2)sc1C1(C)CC(c2ccccc2)=NO1 (stereo unspecified)	1.03	i	·	·	·	103.8	·
CCN(C(=O)COC(=O)c1c(C)noc1C)C1CCS(=O)(=O)C1 (stereo unspecified)	0.88	i	·	0.0	114.0	109.0	-2.6
O=C1O/C(=C\C(=O)N2CCOCC2)c2ccccc21	0.84	i	-3.1	·	·	95.9	-7.0
C=CCNC(=O)COC(=O)c1ccc(Sc2nncn2C)c([N+](=O)[O-])c1	·	·	·	-14.3	147.3	110.5	-8.0
CC(C)=CCCC(C)CN1CCC(N2CCC(C(=O)N3CCOCC3)CC2)CC1 (stereo unspecified)	1.06	i	·	·	·	99.7	-0.4
O=C(Nc1cccnc1)c1ccc(C(=O)Nc2cccnc2)cc1	0.81	i	·	50.0	96.0	97.6	-8.6
CCCCC1(Cc2ccc([N+](=O)[O-])cc2)C(=O)N(c2ccccc2)N(c2ccccc2)C1=O	0.9	i	0.0	15.9	119.5	109.8	3.2
CN(C)C(=O)CSc1n[nH]c(-c2ccco2)n1	0.96	i	·	·	·	100.1	-1.7
Cc1cc2c(cc(C(=O)O)n2C)s1	1.04	i	-0.8	·	·	77.2	-15.0
COc1ccc(NC(=O)NC(=O)c2cc(OCC(F)(F)F)ccc2OCC(F)(F)F)cc1	0.92	i	·	·	·	78.2	·
CCOc1cc(CNc2ccc3c(c2)OCCO3)cc(Br)c1OCC(N)=O	0.92	i	-3.1	·	·	95.3	1.7
COc1cc(CCC(=O)OCC(=O)NCc2ccccc2)cc(OC)c1OC	1	i	·	·	·	96.3	-2.0
O=C1CCC/C(=N\NC(=O)COc2ccc(Cl)cc2)C1	1.16	i	·	·	·	100.7	-4.7
Cc1ccc(OC(=O)c2ccc(Br)o2)cc1	0.93	i	-2.1	-43.2	38.3	92.5	-4.6

An excerpt of these results, with values under each structure.
The line under a structure holds: HSV replic up primary fold	HSV replic up	GALR2 ag	INS promoter inh	INS promoter inh cell count	RGS16-Gao HTS	PKD1 kinase inh
O=C(O)C(Cc1ccccc1)N1C(=O)/C(=C/c2cccs2)SC1=S (stereo unspecified)
  1.64	i	·	·	·	99.1	1.6
CCO[C@@H]1OC(C(=O)Nc2ccccc2)=C[C@H](C2CC2)[C@H]1CCCO
  0.87	i	·	·	·	95.5	-11.4
CCCC(c1nnnn1CCOC)N1CCN(C(=O)c2ccco2)CC1 (stereo unspecified)
  0.92	i	-2.0	-7.1	114.0	100.9	-3.9
CC1=Nc2ccccc2N=C(NC(=O)CN2CCN(c3ccc(F)cc3)CC2)C1c1ccccc1 (stereo unspecified)
  0.95	i	·	·	·	107.9	·
Nc1nnc(SCc2ccc(F)cc2Cl)s1
  1.3	i	-0.2	-2.6	153.1	102.1	-2.9
O=C(C1=C[C@@H](c2ccc3c(c2)OCO3)C[C@@H](OCCCCO)O1)N1CCOCC1
  1.07	i	·	·	·	96.5	-5.0
Cc1nc(C(=O)NC2CCOCC2)sc1C1(C)CC(c2ccccc2)=NO1 (stereo unspecified)
  1.03	i	·	·	·	103.8	·
CCN(C(=O)COC(=O)c1c(C)noc1C)C1CCS(=O)(=O)C1 (stereo unspecified)
  0.88	i	·	0.0	114.0	109.0	-2.6
O=C1O/C(=C\C(=O)N2CCOCC2)c2ccccc21
  0.84	i	-3.1	·	·	95.9	-7.0
C=CCNC(=O)COC(=O)c1ccc(Sc2nncn2C)c([N+](=O)[O-])c1
  ·	·	·	-14.3	147.3	110.5	-8.0
CC(C)=CCCC(C)CN1CCC(N2CCC(C(=O)N3CCOCC3)CC2)CC1 (stereo unspecified)
  1.06	i	·	·	·	99.7	-0.4
O=C(Nc1cccnc1)c1ccc(C(=O)Nc2cccnc2)cc1
  0.81	i	·	50.0	96.0	97.6	-8.6
CCCCC1(Cc2ccc([N+](=O)[O-])cc2)C(=O)N(c2ccccc2)N(c2ccccc2)C1=O
  0.9	i	0.0	15.9	119.5	109.8	3.2

Going on with the list.
Molecule	HSV replic up primary fold	HSV replic up	GALR2 ag	INS promoter inh	INS promoter inh cell count	RGS16-Gao HTS	PKD1 kinase inh
Cc1ccc2c(c1)cc(CN(Cc1cccnc1)C(=O)NCc1ccccc1)c1nnnn12	0.82	i	0.9	-21.1	192.9	88.5	-2.1
COc1ccc(N/C=C\C(=O)c2ccc(Br)cc2)cc1OC	1.17	i	0.7	-27.6	92.5	100.8	-7.6
Cc1onc(-c2ccccc2)c1C(=O)OCC(=O)Nc1cc(S(=O)(=O)N2CCOCC2)ccc1Cl	0.98	i	·	-150.0	106.0	100.9	-4.6
CCC(=O)NC(=Nc1nc2ccccc2s1)NC(=O)CC	0.94	i	-3.8	·	·	102.2	3.2
CC(=O)c1cn(C)c(=O)n(C)c1=O	1.01	i	-0.4	-17.1	79.6	89.2	-6.9
CN(C)NC(=S)NC1CC2CCC1C2 (stereo unspecified)	0.91	i	·	·	·	95.6	·
CCOc1cc(NC(=S)NCCCN2CCOCC2)c(OCC)cc1NC(=O)CC(C)C	0.89	i	-2.7	·	·	106.0	-2.8
Cn1c(C(=O)OCC(=O)NCc2cccs2)cc2sccc21	0.93	i	-3.5	-2.9	110.6	105.3	-4.6
CN(C)C(=S)NC(C)(C)C	0.92	i	·	·	·	102.7	·
CCOC(=O)C1(Cc2cccc(F)c2)CCN(C(=O)COC)CC1	0.85	i	·	·	·	99.2	·
Cc1ccc2nc(NC(=O)C3CCN(S(=O)(=O)c4cc([N+](=O)[O-])ccc4Cl)CC3)sc2c1	0.66	i	-0.6	6.5	118.6	100.9	-6.3
Cc1cc([N+](=O)[O-])ccc1NC1CCCC1	0.91	i	-0.7	37.5	146.4	96.1	-10.1
CCCOP(=O)(c1ccc(N(C)C)cc1)C(O)c1cc(OC)c(OC)c(OC)c1 (stereo unspecified)	1.02	i	-2.0	·	·	98.3	-10.1
CCC(C)(C)n1nnnc1C(c1ccc(C)cc1)N1CCN(Cc2ccc3c(c2)OCO3)CC1 (stereo unspecified)	0.95	i	-4.6	3.5	142.0	101.6	-9.0
O=C1c2c(O)cc(O)cc2O[C@H](c2ccc(O)c(O)c2)[C@H]1O	0.72	i	·	·	·	99.0	·
COc1ccc(/C=N/OC(=O)Nc2ccc(Cl)cc2)c(OC)c1	1.07	i	·	·	·	103.4	·
CCOc1ccccc1N(C)C(=O)c1cc2c(=O)n(CC)c3ccccc3c2s1	1.02	i	·	·	·	98.5	·
CCCNC(=O)c1ccc(Cn2cc(C(F)(F)F)ccc2=O)cc1	0.95	i	·	·	·	104.1	-4.6
COc1ccc(/C=C/C(=O)Nc2cc(S(=O)(=O)N3CCOCC3)ccc2C)cc1OC	0.83	i	·	·	·	102.1	-1.2
Cc1cc(C(=O)CCC(=O)N2CCN(S(=O)(=O)c3cccs3)CC2)c(C)s1	·	·	0.5	·	·	103.4	1.9
CCC(CC)C(=O)Nc1c2c(nn1-c1ccc(OC)cc1)CS(=O)C2 (stereo unspecified)	0.94	i	-0.2	·	·	103.9	-17.1
CC1C=CCC2C(=O)N(c3cccc(C(=O)N4CCCCCC4)c3)C(=O)C12 (stereo unspecified)	0.95	i	-1.6	·	·	96.9	2.3
CCCCS(=O)(=O)/C=C/[C@H]1[C@H](S(=O)(=O)CCCC)[C@H]2C=C[C@@H]1C2	1	i	-2.9	28.6	73.8	97.9	2.0
Cc1ccc(NC(=O)CCCSc2nc3ccccc3[nH]2)cc1	0.95	i	-1.0	-373.3	58.5	230.2	15.8
COc1ccc(-c2c(C#N)c(N)nc3c2CCC3)cc1	0.96	i	·	·	·	100.8	6.0
O=C(COC(=O)c1ccc(O)cc1)NCCCc1ccccc1	0.87	i	·	-100.0	89.9	96.5	-2.5
Cc1ccc(SC(C)C(=O)N2CCCC2)cc1 (stereo unspecified)	1	i	-1.9	5.3	69.0	112.4	-15.8
CCn1c(=O)cc(SCC(=O)NCCCN2CCN(c3ccc(F)cc3)CC2)c2ccccc21	0.85	i	0.3	·	·	107.1	-12.9
COC(=O)CSc1cc(C)nc(SC)n1	1.08	i	-2.8	63.0	40.3	103.1	1.2
Cc1oc(-c2cccc(C(F)(F)F)c2)nc1CN1CCOCC1	0.89	i	·	-25.0	122.5	102.0	2.9
CCC(=O)Nc1c2c(nc3c1CCC3)CCCC2	0.91	i	-0.9	42.9	92.4	105.0	-5.1
